# UUG fidelity – modulators of start codon recognition fidelity in yeast; S. cerevisiae UUG-firefly luciferase reporter, luminescence/redox ratio; activity score, % at 18.7 µM; 0.13% of 350,000 active; AID 602363;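 active = replicate mean at a twofold rise or more, about +100% in these data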;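 note: firefly luciferase made from a UUG start codon reports start codon fidelity; reporter light over untreated wells divided by growth signal over untreated wells; some hits fall short of that in this replicate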
# Env fusion inh – HIV envelope-mediated fusion inhibition; HeLa-JRFL Env/CEM21 cell fusion, luciferase; inhibition, % at 12.3 µM; 1.1% of 360,000 active;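 active = mean replicate inhibition score of at least 50 and every replicate individually at or above 50; inconclusive = only one of the two criteria met; inactive = mean below 50 and not all replicates reaching 50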;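 note: 0% = plate neutral controls and 100% = maraviroc near 300 nM; one replicate is shown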
# eIF4H inh – inhibitors of RNA binding by human eIF4H; AID 2012; 0.94% of 290,000 active; inhibition, % at 35 µM; eIF4H fluorescence polarization binding assay; Q15056;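 active = 50% or more with normal probe brightness, or confirmed in later tests; inconclusive = above 50% with abnormal brightness, or retests that disagree; inactive = below 50% or failed in later tests; about a fifth of its hits are not listed in these tables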;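 note: calls also rest on retests at 20 µM and on dose response follow-up; 0% = protein and probe with vehicle and 100% = probe without protein; strong numbers were not always called active; many hits fall short of the cut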
# PABP FP inh – PABP-poly(A) binding inhibition. PABP-poly(A) RNA binding, fluorescence polarization. inhibition, % at 35 µM. 1% of 290,000 active. AID 2014;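 active = 50% or more with normal probe brightness, or confirmed in later tests; inconclusive = above 50% with abnormal brightness, or retests that disagree; inactive = below 50% or failed in later tests; about a fifth of its hits are not listed in these tables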;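 note: calls also rest on retests at 20 µM and on dose response follow-up; controls were probe without protein and protein plus probe with vehicle; some compounds called inactive have numbers as strong as hits; many hits fall short of the cut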
# Target sequence (P11940 whole entry, looked up): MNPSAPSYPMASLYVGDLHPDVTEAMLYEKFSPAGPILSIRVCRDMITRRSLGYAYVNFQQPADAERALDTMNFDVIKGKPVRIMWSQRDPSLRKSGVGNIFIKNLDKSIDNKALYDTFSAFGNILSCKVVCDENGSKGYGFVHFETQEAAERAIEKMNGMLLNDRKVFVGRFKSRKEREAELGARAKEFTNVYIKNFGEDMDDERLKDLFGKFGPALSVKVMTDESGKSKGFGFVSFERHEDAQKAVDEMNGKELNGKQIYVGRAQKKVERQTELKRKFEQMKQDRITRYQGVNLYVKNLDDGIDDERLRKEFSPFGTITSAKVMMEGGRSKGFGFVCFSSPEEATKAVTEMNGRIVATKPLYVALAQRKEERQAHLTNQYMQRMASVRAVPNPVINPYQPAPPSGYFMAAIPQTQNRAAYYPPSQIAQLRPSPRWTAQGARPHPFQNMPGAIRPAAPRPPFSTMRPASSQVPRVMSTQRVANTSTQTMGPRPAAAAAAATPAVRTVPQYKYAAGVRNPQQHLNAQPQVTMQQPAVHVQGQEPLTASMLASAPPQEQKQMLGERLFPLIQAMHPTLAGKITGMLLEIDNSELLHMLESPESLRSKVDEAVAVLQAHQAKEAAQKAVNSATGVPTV
# CSC inhib – blocks cancer stem cells; 1.1% of 300,000 active; cancer stem cell-like cells viability, luminescence; inhibition, % at 7.5 µM;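 active = mean at 75% or more and at least half the replicates too; inconclusive = mean and replicates disagree; tested in HMLE shEcad cells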;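 note: 0% = median of negative and 100% = median of positive control wells; the first replicate is given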
# Rce1 inh – blocks yeast Ras-converting enzyme; 0.27% of 290,000 active; AID 2563; yeast membranes, quenched prenylated peptide cleavage fluorescence; Q03530; calls only;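 active = fall in fluorescence gain of 50% or more versus controls, with final raw signal at or below 3038400; inconclusive = same 50% fall but final raw signal above 3038400; inactive = fall in fluorescence gain under 50%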;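 note: plate controls were neutral control wells for no effect and wells lacking membranes for full effect; tested at 10 µM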
# Target sequence (Q03530 whole entry, looked up): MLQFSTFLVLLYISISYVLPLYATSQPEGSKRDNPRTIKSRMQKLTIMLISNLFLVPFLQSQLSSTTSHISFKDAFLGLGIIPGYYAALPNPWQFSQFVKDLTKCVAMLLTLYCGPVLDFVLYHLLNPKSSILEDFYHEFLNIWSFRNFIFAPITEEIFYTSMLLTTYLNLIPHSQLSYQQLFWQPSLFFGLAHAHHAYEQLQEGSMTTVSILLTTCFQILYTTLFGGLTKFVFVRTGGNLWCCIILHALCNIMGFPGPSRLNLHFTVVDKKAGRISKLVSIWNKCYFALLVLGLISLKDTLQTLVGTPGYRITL
# MT1-MMP act inh – inhibitors of human MT1-MMP activation | P50281 | HT1080 RFP-PRO-GFP cells, GFP/RFP ratio fluorescence, overnight; percent of plate control window, DMSO zero | GFP/RFP ratio change, % at 20 µM | 0.061% of 360,000 active;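 active = GFP/RFP ratio change of at least 30% with cell ATP level not reduced by more than half and red fluorescence within 50% of control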; note: strong numbers were not always called active
#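 Assay system: HT1080 cells carrying an RFP-PRO-GFP reporter | Dosing: Single dose of 20 µM compound, 1% DMSO final | Incubation: Cells overnight before dosing, compound overnight, 37 °C, 5% CO2 | Evaluation: GFP/RFP fluorescence ratio | Control set: DMSO and RFP-L50D-GFP cell wells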
# eIF4H inh retest – also measured in eIF4H inh; calls as there; inhibition, %; compound at 20 µM; confirmation average;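 mean of two retest wells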
# PABP FP inh retest – also measured in PABP FP inh; calls as there; inhibition, %; compound at 20 µM; confirmation repeats;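 mean of two retest wells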
# MT1-MMP act inh RFP – second read-out of MT1-MMP act inh, no call of its own (marks repeat the call); RFP signal change, %; measured here: RFP expression control read;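 0 = vehicle wells; hits needed this value within 50% of zero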
# * marks the source's active call; other numbers are inactive results; i = inactive; u = inconclusive; x = not tested or not shown. Outcome played no part in choosing rows; any-hit rate near 2.9%.
SMILES,UUG fidelity,Env fusion inh,eIF4H inh,PABP FP inh,CSC inhib,Rce1 inh,MT1-MMP act inh,MT1-MMP act inh RFP,others
COc1cc(NC(=S)NC(C)=O)ccc1NC(=O)C(C)C,-13,-41,-8,-6,0,i,0,-1,
Cc1ccc(NC(=S)N/N=C2\CC(C)(C)Oc3ccc(O)cc32)cc1,x,13,-2,0,46,i,3,-5,
N#Cc1ccccc1CSc1ncccc1C(=O)O,-13,-14,3,4,5,i,-1,-2,
COc1ccccc1Nc1ncnc2c1c(C)c(C)n2CCO,-1,-11,-7,-3,-3,i,7,1,
O=C(O)Cn1c(SC2CCCCC2)nc2ccccc21,-12,x,-9,-9,7,i,3,1,
Cc1cc2occ(CC(=O)N(C)CC(=O)Nc3ccccc3Cl)c2cc1C,x,9,x,x,-12,i,-2,1,
COc1cc([N+](=O)[O-])ccc1NC(=O)/C=C/C(=O)O,x,-14,-1,31,-2,i,2,1,
C1CCN(c2nc(N3CCCCC3)nc(N3CCNCC3)n2)CC1,-16,x,-10,-7,-6,i,-20,-8,
Cc1ccc(C(=O)O)cc1[N+](=O)[O-],21,x,x,x,-9,x,0,9,
CS(=O)(=O)N1CCCC(C(=O)NCCc2ccc(Cl)cc2)C1 (stereo not given),-14,-27,-2,-2,-14,i,1,0,
CCOC(=O)C1Cc2ccccc2CN1 (stereo not given),-7,-7,-7,6,-2,i,5,4,
CC(=O)c1ccc2noc(-c3ccc(Cl)cc3)c2c1,x,-35,23,-3,-12,i,-2,1,
COc1ccc(CCNC(=O)C(=O)N2CCCCC2)cc1OC,-13,x,8,-4,-26,i,-1,0,
Cc1cc(=O)n(Nc2ccccc2)c(O)c1C#N,-6,26,x,x,x,x,-7,-2,
Fc1ccc(-c2cc(C(F)(F)F)nc(NCc3cccs3)n2)cc1,-14,-36,-1,-5,29,i,5,-12,
COc1ccc(NC(=O)COC(=O)/C=C/C(=O)OCC(=O)Nc2ccc(OC)c(Cl)c2)cc1Cl,-8,37,-2,4,-14,i,0,2,
CCCn1c(NCc2ccco2)nc2c1c(=O)n(C)c(=O)n2C,-7,x,60,13,2,i,5,-3,eIF4H inh retest=34;PABP FP inh retest=32
Cc1ccc(-c2nc(P(=O)(c3ccccc3)c3ccccc3)c(N3CCOCC3)o2)cc1,x,15,8,15,-3,i,-4,-12,
O=[N+]([O-])c1cc(C(F)(F)F)cc([N+](=O)[O-])c1NCCCNc1ccc([N+](=O)[O-])c2cccnc12,-11,u,3,-7,39,i,13,-3,
S=C(Nc1ccc(Cl)c(Cl)c1)NN1CCOCC1,-6,-13,-15,6,-9,i,-4,0,
N/C(Cn1cncn1)=N\NC(=O)C(=O)Nc1ccc(Cl)cc1Cl,x,-14,-7,-1,0,i,3,-2,
O=[N+]([O-])c1ccc(CSc2ccc(S(=O)(=O)N3CCCCC3)cn2)cc1,x,43,x,x,-8,x,-8,-12,
O=C(NC(=O)c1ccccc1)OCC1CCCN2CCCCC12 (stereo not given),-31,6,4,-5,-4,i,0,2,
Cn1sc2ccccc2c1=O,-2,-16,x,x,x,x,0,0,
CCC(CC)NC(=O)COC(=O)c1ccc(OCC(=O)Nc2ccccc2OC)c(OC)c1,-14,-37,-18,3,-6,i,2,-1,
NC(=O)C(CCCCN1CCCCC1)(c1ccccc1)c1ccccc1,-6,1,x,x,x,x,1,4,
CCN(CC)c1nc2c(c(=O)n(C)c(=O)n2C)n1CCCc1ccccc1,10,10,2,-2,-7,i,1,-2,
CN(C)CC1(c2ccccc2)CCCC1,-23,0,-4,-8,33,i,1,5,
COc1ccc(NC(=O)c2nc[nH]c2C(=O)Nc2ccccc2C)cc1,-12,x,6,1,62,i,0,-4,
Cc1nc(NCc2ccccc2)sc1C(=O)Nc1ccccc1,-15,-36,-11,5,19,i,5,-1,
CCCNc1nc(NCC)nc(OC)n1,-25,x,-10,-3,-7,i,-1,0,
COc1cccc(NC(=O)CSc2nnc(CN3CCOCC3)n2C)c1,-9,x,1,-4,-7,i,-3,3,
COCCn1c(=NC(=O)CCS(=O)(=O)c2ccccc2)sc2cc(C(=O)OC)ccc21,-6,-21,1,-3,-7,i,2,3,
COCCNc1nc2nonc2nc1N1C[C@H]2CC[C@H]1C2,0,0,3,-1,-7,i,8,10,
O=C(NCCCN1CCCC1=O)c1csc2ccccc12,-15,x,-12,-7,-13,i,2,-2,
COc1ccnc(-n2cccc2/C=N/O)c1C#N,x,-6,2,0,-17,i,0,6,
COc1ccc(C(C(=O)NC(C)(C)C)N(Cc2cccs2)C(=O)CCC(=O)Nc2cc(C)on2)cc1 (stereo not given),-14,-11,2,3,5,x,-2,-2,
CC(=O)c1cccc(NC(=S)NC(=O)CC(C)C)c1,x,-81,-2,6,-16,i,-3,1,
CC1Cc2ccccc2N1Cc1cc(=O)n2ccsc2n1 (stereo not given),1,x,70,-5,9,x,-1,7,eIF4H inh retest=-9;PABP FP inh retest=4
CC1CCN(S(=O)(=O)c2ccc(N/N=C(/C#N)C(N)=O)cc2)CC1,-1,x,6,-5,3,i,5,0,
CCOC(=O)N1CCN(c2nc3ccccc3nc2C(C#N)C(=O)NCCc2ccccc2)CC1 (stereo not given),-12,x,46,53*,32,i,-6,-2,
Cc1c(CC(=O)N2CCN(C(=O)C3COc4ccccc4O3)CC2)c(=O)oc2c(O)c(O)ccc12 (stereo not given),-11,2,61*,21,11,i,1,-9,eIF4H inh retest=103*;PABP FP inh retest=49
CCN(CC(=O)NCc1cccs1)C(=O)c1ccc(S(=O)(=O)Nc2ccccc2OC)cc1,9,-5,x,x,x,x,0,2,
CCN(CC)CC(=O)c1c[nH]c2ccc(C)cc12,-4,x,3,1,-2,i,-2,2,
CC(C)(C)n1nc2c(c1NC(=O)c1c(F)cccc1F)CS(=O)(=O)C2,-15,-1,x,x,-4,i,0,-1,
Cc1c(C(=O)NCC2CCCO2)oc2ccc(Br)cc12 (stereo not given),13,-14,x,x,14,i,-3,-5,
Cc1ccccc1Nc1nc(N)nc(COC(=O)[C@@H](NC(=O)c2ccccc2Cl)C(C)C)n1,-3,-70,x,x,-8,i,8,0,
Cc1ccc(-c2cc3ncc(C#N)c(N)n3n2)cc1,x,-5,-9,14,-6,i,0,0,
O=[N+]([O-])c1c(C(Cl)Cl)nn(-c2ccccc2)c1N1CCCC1,-16,x,-2,5,-14,i,-5,-4,
Cc1ccccc1OCC(O)Cn1c(NCc2ccco2)nc2c1c(=O)[nH]c(=O)n2C (stereo not given),-5,x,-8,-1,-13,i,7,-3,
Cc1ccccc1OCCC(=O)NNC(=O)COc1cccc(F)c1,-18,6,x,x,8,x,4,1,
COc1cccc(CNC(=O)C(=O)NCCc2ccc(OC)c(OC)c2)c1,x,9,2,3,x,i,-4,4,
COc1cccc2c1OCC(CN1CCN(Cc3ccccc3F)C(CCO)C1)=C2 (stereo not given),-7,-6,-8,8,7,i,2,-8,
O=C(NCCN1CCOCC1)c1c(O)nc2sccn2c1=O,-3,-3,x,x,13,i,5,4,
O=C1N=C(C=c2ccc(=Cc3[nH]c(=O)[nH]c3O)cc2)C(=O)N1,x,x,10,10,-5,i,x,x,
COc1ccc2[nH]c(C(=O)NCCc3ccccc3)cc2c1,-9,-21,-3,-6,-12,i,0,-2,
COc1cccc(NC(=O)c2c(C)nn(-c3ccccc3)c2Cl)c1,-8,-36,0,8,x,i,3,-4,
CCCCn1nc(NC(=O)c2cccs2)c2cc3cc(OC)ccc3nc21,-10,x,-5,-4,19,i,-3,-9,
Cc1ccccc1-n1ncc2c1CC(C)(C)CC2NC(=O)c1ccncc1 (stereo not given),1,-14,-7,-6,-1,i,-1,-2,
CCN(CC)C(=O)c1ccc(C(=O)Nc2ccc(F)cc2)cc1,-5,1,x,x,-4,x,0,1,
# (more compounds)
SMILES,UUG fidelity,Env fusion inh,eIF4H inh,PABP FP inh,CSC inhib,Rce1 inh,MT1-MMP act inh,MT1-MMP act inh RFP,others
Cc1noc(C)c1S(=O)(=O)N(CC(=O)NCCc1ccccc1)c1ccc(C(C)C)cc1,-2,6,-4,7,14,i,-4,-1,
CCOc1ccc(Nc2nc(N(C)c3ccccc3)nc(N)c2[N+](=O)[O-])cc1,x,1,-2,-6,6,i,6,8,
Cc1c(C)[n+](=O)c(C)c(C)n1[O-],-5,u,x,x,x,x,4,5,
COc1ccccc1CCC(=O)OCC(=O)Nc1cccc(S(=O)(=O)N2CCCCC2)c1,x,-2,x,x,x,i,2,-1,
CCOc1nc(Nc2ccc(OC)c(Cl)c2)nc(OCC)n1,-12,-5,1,0,4,i,-2,0,
CCN(CC)C(=O)COc1ccc2oc(-c3ccco3)cc(=O)c2c1,x,-11,17,13,6,i,1,1,
Cc1cccc(NC(=O)CCc2c(C)nn(-c3ccc(N4CCCCC4)nn3)c2C)c1,-23,-32,-3,13,-2,i,4,2,
O=C(NCc1ccccn1)C1COc2ccccc2O1 (stereo not given),-21,x,-4,3,-1,i,6,2,
COc1ccc(NC(=O)CC2Nc3cc(C)c(C)cc3NC2=O)c([N+](=O)[O-])c1 (stereo not given),-18,11,-7,-3,53,i,10,-2,
Cc1ccc(C(=O)N/C(=C\c2cccs2)C(=O)NCCCn2ccnc2)cc1,x,26,0,-10,-4,i,1,6,
COc1ccc(-n2c(SCc3ccc(C#N)cc3)nnc2-c2ccccn2)cc1,-39,-50,-3,-8,-8,i,0,2,
O=C(NNC(=O)C1CCCO1)c1ccc(Cl)cc1 (stereo not given),-21,-47,-9,16,-15,i,-2,-11,
O=C(CN1C(=O)CCC1=O)c1ccc(-c2ccccc2)cc1,x,-2,-7,-3,-7,i,0,2,
CCOC(=O)c1cc(CC)sc1NC(=O)COC(=O)C1CCC1,-10,-9,-8,-7,-1,i,2,2,
O=C(Cn1cc2c(n1)CCCCC2)Nc1c(F)cc(F)cc1Br,-14,1,1,-4,-2,i,-2,-3,
COc1ccc(NC(=O)COc2ccccc2F)cc1S(=O)(=O)N1CCCCC1,-2,20,-2,-1,-2,x,11,3,
CCOc1ccccc1NC(=O)c1ccc(Cl)c(NC(=O)CC(c2ccccc2)c2ccccc2)c1,-11,x,-16,-6,-8,i,-10,-14,
COc1ccc(CN2CCOCC2)cc1Br,x,x,7,10,-5,i,0,7,
COc1ccc(-c2csc(Nc3cccnc3)n2)cc1OC,-9,-259,-2,-1,21,i,9,2,
O=C(CSc1nnc(-c2c[nH]c3ccccc23)n1-c1ccc(F)cc1)NCc1ccco1,-4,x,-2,2,-7,i,2,-2,
CCOC(=O)c1c(NC(=O)c2nn(CC)cc2Br)sc(C)c1C,-13,x,-3,-12,16,i,2,-1,
COCCNC(=O)C(c1cccs1)N(CCc1ccccc1)C(=O)Cn1nnc2ccccc21 (stereo not given),-6,x,-4,4,-11,i,-1,-5,
Cc1ccc(C)c(OCCCN2CCc3ccccc3C2)c1,-22,12,1,-7,27,i,0,4,
O=C1/C(=C/c2ccc([N+](=O)[O-])cc2)C=C(c2ccccc2)N1c1ccc(O)cc1,x,x,-1,-5,x,i,-30,-29,
CN(C)/C=C/C(=O)c1cccc(Oc2ncccn2)c1,-2,-4,-14,-7,-8,i,2,4,
N#Cc1cc2c(nc1SCC(=O)Nc1sc3c(c1C#N)CCC3)CCCCCC2,0,u,-24,-6,16,i,-8,0,
